# High-throughput results as filed in PubChem BioAssay.
# VACV mCherry inh: vaccinia inhibition (mCherry reporter); actives 0.63% (n = 310,000); AID 720579; Potency, µM (highest dose often 36.5 µM), for inactives: at the top dose activity change, negative = inhibition, usual class: inhibitors; Vaccinia virus mCherry reporter infection, fluorescence; about a quarter of the inactives have no number; active = well fitted inhibition curve with a large enough effect; inconclusive = small, poorly fitted or top-dose-only effect; inactive = no such curve, though single readings can be large or run the other way; tested in A549 cells; also: nearly all actives have a fitted effect of over 35% in size; inactives centre near -10
# Vaccinia Venus: inhibitors of vaccinia virus (Venus reporter). AID 720580. Potency, µM (series often up to 36.5 µM), for inactives: top-dose activity change, negative = inhibition, actives largely listed as inhibitors. actives 0.46% (n = 330,000). Vaccinia virus Venus reporter expression, fluorescence; active means well fitted inhibition curve with a large enough effect; inconclusive means small, poorly fitted or top-dose-only effect; inactive means no such curve, though single readings can be large or run the other way; tested in A549 cells; also: nearly all actives have a fitted effect of over 30% in size; inactives centre near -10
# An asterisk follows results filed as active; i = inactive; ? = inconclusive; / = not tested or not shown; & = joins results of further samples; [ ] = dose if it differs, or a comment. % is scaled to controls: 0 for no effect and ±100 for the full control effect; potency is read from the fitted curve at half-maximal effect.
SMILES,VACV mCherry inh,Vaccinia Venus
O=C(C[C@@H]1C/C=C\C[C@H](Cc2ccc(F)cc2)C(=O)OC[C@@H](Cc2c[nH]c3ccccc23)NC1=O)NCCO,-18%,?
CCOC(=O)[C@]12CCCC=C1N(Cc1ccccc1)C(=O)[C@H](CC(=O)N1CCN(C(=O)C3CC3)CC1)C2,-8%,-8%
Fc1ccc(C(OCCN2CCN(C/C=C/c3ccccc3)CC2)c2ccc(F)cc2)cc1,?,?
N#Cc1c(NC(=O)C2CC=CCC2C(=O)O)sc2c1CCCCCC2 (stereo not given),i,-14%
COc1ccc(C(=O)Nc2cccc(/C(C)=N/NC(=O)c3ccc([N+](=O)[O-])cc3)c2)cc1OC,i,-11%
Cn1cc(S(=O)(=O)N2CCc3ccccc32)cc1C(=O)Nc1ccc(Cl)cc1,-21%,?
Cc1ccc(C(=O)N/C(=C\c2cccc([N+](=O)[O-])c2)C(=O)NC(Cc2ccccc2)C(=O)O)cc1 (stereo not given),i,-15%
Cc1cc(C)nc(N2CCCC(C(=O)NC3CC3)C2)n1 (stereo not given),-8%,2%
COc1nnc(-c2ccc(C)c(S(=O)(=O)NC(C)(C)CO)c2)c2ccccc12,-19%,-26%
Cc1nc(-c2ccccc2)sc1-c1nc(-c2ccncc2)ncc1S(=O)(=O)c1ccccc1,-10%,-6%
CCC(=O)Nc1ccc(S(=O)(=O)N2CCC(c3nc4ccccc4[nH]3)CC2)cc1,-4%,-8%
CCCn1nnc(NC(=O)COc2ccc(CC)cc2)n1,/,-12%

# A draw from above in order of heavy-atom count, descending.
SMILES,VACV mCherry inh,Vaccinia Venus
CCOC(=O)[C@]12CCCC=C1N(Cc1ccccc1)C(=O)[C@H](CC(=O)N1CCN(C(=O)C3CC3)CC1)C2,-8%,-8%
COc1ccc(C(=O)Nc2cccc(/C(C)=N/NC(=O)c3ccc([N+](=O)[O-])cc3)c2)cc1OC,i,-11%
COc1nnc(-c2ccc(C)c(S(=O)(=O)NC(C)(C)CO)c2)c2ccccc12,-19%,-26%
Cc1cc(C)nc(N2CCCC(C(=O)NC3CC3)C2)n1 (stereo not given),-8%,2%

# Profiles, looked up by structure. Values in the order: VACV mCherry inh	Vaccinia Venus
# Cc1ccc(C(=O)N/C(=C\c2cccc([N+](=O)[O-])c2)C(=O)NC(Cc2ccccc2)C(=O)O)cc1 (stereo not given) in the list: i	-15%
# Cc1cc(C)nc(N2CCCC(C(=O)NC3CC3)C2)n1 (stereo not given) in the list: -8%	2%
# Cn1cc(S(=O)(=O)N2CCc3ccccc32)cc1C(=O)Nc1ccc(Cl)cc1 in the list: -21%	?
# CCOC(=O)[C@]12CCCC=C1N(Cc1ccccc1)C(=O)[C@H](CC(=O)N1CCN(C(=O)C3CC3)CC1)C2 in the list: -8%	-8%
# COc1ccc(C(=O)Nc2cccc(/C(C)=N/NC(=O)c3ccc([N+](=O)[O-])cc3)c2)cc1OC in the list: i	-11%

# Two compounds drawn at random from the list so far:
SMILES,VACV mCherry inh,Vaccinia Venus
COc1ccc(C(=O)Nc2cccc(/C(C)=N/NC(=O)c3ccc([N+](=O)[O-])cc3)c2)cc1OC,i,-11%
CCCn1nnc(NC(=O)COc2ccc(CC)cc2)n1,/,-12%

# The listing continues.
SMILES,VACV mCherry inh,Vaccinia Venus
COc1ccc(CC(=O)N2N=C(C)CC2(O)C(F)(F)F)cc1OC (stereo not given),-17%,-9%
CC(COc1ccc(/C=C/c2ccccc2)cc1)[N+](C)(C)C (stereo not given),-24%,-18%
O=C(NCC(c1ccco1)N1CCCC1)c1cccc(S(=O)(=O)N2CCc3ccccc32)c1 (stereo not given),?,?
Cc1ccc(NC(=O)CCl)cc1S(=O)(=O)N1CCCCCC1,-11%,-14%
O=C(CSc1ccc(-c2ccc(F)cc2)nn1)N1CCCc2ccccc21,-24%,-12%
COc1ccc2c(c1OC)C(=O)N1N=C(c3ccc(O)cc3)CC21 (stereo not given),/,3%
COc1ccc(NC(=S)NC(=O)c2cncc(Br)c2)cc1,i,-3%
COc1ccc(C(=O)C2CCCN(C(=O)c3cc(C)on3)C2)cc1F (stereo not given),i,-7%
CCc1ccc(CN2CCC(n3nccc3NC(=O)c3ccccc3Cl)CC2)cc1,-27%,-23%
CCN1C(=O)/C(=C\c2cn(-c3ccccc3)nc2-c2cccnc2)SC1=S,-2%,-8%
CCc1ccc(NC(=O)c2cccn(Cc3cccc([N+](=O)[O-])c3)c2=O)cc1,?,-26%
O=S(=O)(Nc1cccc(Cl)c1)c1ccc(-n2cccn2)cc1,?,-13%
O=C(Nc1ccccc1C(=O)N1CCCC1)c1cccc(S(=O)(=O)N2CCCCC2)c1,/,-19%
CCOC(=O)C1CCN(S(=O)(=O)c2ccc(C(C)=O)cc2)CC1,i,-10%
O=C(CSc1nnc(-c2ccc3c(c2)OCO3)n1-c1ccccc1)c1ccc(Cl)cc1,i,1%
CS(=O)(=O)c1ccc(C(=O)OC2CCOC2=O)cc1[N+](=O)[O-] (stereo not given),-28%,-2%
CCCCn1c(N)c(N(CC(C)C)C(=O)CN2C(=O)c3ccccc3C2=O)c(=O)[nH]c1=O,i,7%
CCOCCCn1c(SCC(=O)Nc2ccccc2CC)nc2ccccc2c1=O,-9%,-10%
COC(=O)c1c(C)sc(-c2c(-c3ccc(F)cc3)[nH]c3[nH]c(=O)[nH]c(=O)c23)c1O,1%,-5%
COc1cccc(-c2ccc3c(c2)C2CC3CCN2C(=O)c2ccc(Cl)cc2)c1 (stereo not given),i,-14%
CCOc1ccc(C(C)=O)cc1COc1ccc(-c2nnco2)cc1,-8%,-14%
CC1Cc2ccccc2N1C(=O)CN1CCCCC1 (stereo not given),-12%,2%
O=C(N/N=C/c1cn(-c2ccccc2)nc1-c1cccs1)c1ccccc1F,?,?
O=C(CSc1nnc(C2CC2)n1C1CC1)c1ccc(Br)s1,-21%,-8%
COc1ccc(C2Sc3ccccc3N(CCN(C)C)C(=O)[C@@H]2OC(C)=O)cc1 (stereo not given in full),-2%,-5%&-10%
Nc1c(NC=O)c(=O)n(Cc2ccccc2)c(=O)n1Cc1ccccc1,-18%,-13%
O=C1/C(=C/c2ccc([N+](=O)[O-])cc2)CCC1C1CCCC1 (stereo not given),i,-16%
COc1ccc(C(=O)c2ccc(C)cc2)c(OC)c1OC,?,-25%
Cc1c(NC(=O)c2cc(=O)c3ccccc3o2)c(=O)n(-c2ccccc2)n1C,-10%,-7%
O=[N+]([O-])c1cccc2c(S(=O)(=O)N3CCCCC3)cccc12,?,-11%
CCc1ccc(N(C(=O)Cn2nnc(-c3ccccc3)n2)C(C(=O)NC2CCCCC2)c2ccccn2)cc1 (stereo not given),-3%,-2%
CCOC(=O)N1CCN(C(=O)CN(c2ccccc2)S(C)(=O)=O)CC1,-5%,-7%
CC(C)C[C@H]1CNC(=O)C(=O)N1C[C@H]1CCCN1C[C@H](CC(C)C)N1C[C@H](CC(C)C)N(CCc2ccccc2)C(=O)C1=O,-20%,-14%
CCn1ccnc1CN(C)Cc1cn(C)nc1-c1ccccc1F,-10%,-8%
Cc1ccc2cc3cc(C(=O)NCCCN4CCc5ccccc5C4)oc3nc2c1,?,?
CCOCCCNC(=O)c1cc2c(=O)n3cccc(C)c3nc2n1C,i,-22%

# Given with each value named: part of the list above
> CC1Cc2ccccc2N1C(=O)CN1CCCCC1 (stereo not given)
  VACV mCherry inh: -12%; Vaccinia Venus: 2%

> O=C(N/N=C/c1cn(-c2ccccc2)nc1-c1cccs1)c1ccccc1F
  VACV mCherry inh: ?; Vaccinia Venus: ?

> O=C(CSc1nnc(C2CC2)n1C1CC1)c1ccc(Br)s1
  VACV mCherry inh: -21%; Vaccinia Venus: -8%

> COc1ccc(C2Sc3ccccc3N(CCN(C)C)C(=O)[C@@H]2OC(C)=O)cc1 (stereo not given in full)
  VACV mCherry inh: -2%; Vaccinia Venus: -5%&-10%

# Continuation:
SMILES,VACV mCherry inh,Vaccinia Venus
Cc1ccc(NC(=O)CC2Nc3cccc4cccc(c34)NC2=O)cc1 (stereo not given),-8%,-1%
CC(=O)c1cccc(Nc2ncnc3c2cnn3C)c1,-12%,-6%
C#CCNCCS(=O)(=O)N(Cc1ccc(Br)cc1)[C@@H](CC(C)C)C(=O)O,5%,-13%
Cc1cc(S(=O)(=O)N2CCN(C(=O)c3ccco3)CC2)ccc1F,-14%,-9%
CC(=O)Nc1cccc(NC(=O)C(=O)c2cn(CC(=O)N3CCCCC3)c3ccccc23)c1,-14%,-3%
COc1cc(NC(=O)c2ccccc2)c(OC)cc1NC(=O)Cc1ccc(F)cc1,-12%,-12%
CCNC(=O)NC(=O)CSc1ccc(S(=O)(=O)N2CCCCC2)cn1,-7%,-5%
CC(=O)C1C(c2cn(-c3ccccc3)nc2-c2cccs2)NC(=O)NC1(O)C(F)(F)F (stereo not given),-5%,-25%
O=[N+]([O-])c1ccccc1S(=O)(=O)NC1CC2CCC1C2 (stereo not given),?,-10%
Cc1ccc(NC(=S)N2CCC(NC(=O)c3cccc(F)c3)CC2)cc1,?,-5%
Cc1ccc(-n2c(SCC(=O)N3CCCc4ccccc43)nnc2-c2cccnc2)c(C)c1,i,-7%
COc1ccccc1N(CC(=O)N1CCOCC1)S(C)(=O)=O,-11%,-8%
CC1CC1c1ccc(/C=C(\C#N)C(=O)Nc2ccc(Cl)cc2)o1 (stereo not given),-17%,-23%
COc1cccc(NC(=O)C2CCCN2C(=O)Nc2ccccc2F)c1 (stereo not given),-7%,1%
CC(C)CCNC(=O)c1cccc(Nc2nc3ccccc3n3nnnc23)c1,?,?
COc1cc(OC)nc(/N=C/N(C)C)n1,0%,3%
Cc1[nH]c2ccccc2c1/C=N/Nc1nc2ccccc2[nH]1,?,-19%[7.34 µM]
O=S(=O)(Cc1ccccc1)N1CCN(C2Cc3ccccc3C2)CC1,-1%,-7%
O=C(O)CSCC(=O)Nc1ccc(-c2nc3ccccc3s2)cc1,-13%,-5%
COc1cc([N+](=O)[O-])cc(/C=N/NC(=O)c2ccc(NC(=O)c3ccc(C)cc3)cc2)c1O,1%,4%
CNC(=O)c1ccc(NC(=O)c2ccccc2OCc2c(C)noc2C)cc1,?,-15%
CC/C(=N\NC(N)=O)c1ccc(OC(F)F)cc1,-14%,-1%
COc1ccc(Cl)cc1C1=NOC2(CCC2)C(=O)N1Cc1ccc(NC(C)=O)cc1,17%,-4%
Cc1cccnc1NC(=S)NC(=O)c1oc2ccccc2c1C,-15%,-1%
COc1cccc2cc(-c3nnc(Nc4ccccc4C)s3)c(=O)oc12,?,?
CCOc1ccc(NC(=O)Cn2cc(C(=O)c3ccc(OCC)cc3)c(=O)c3cc4c(cc32)OCCO4)cc1,-13%,-8%
Cc1ccc(Cn2c(CNC(=O)Cc3cccc([N+](=O)[O-])c3)nc3cccnc32)cc1,-14%,-7%
COC(=O)[C@@]1(Cc2ccc(F)cc2)[C@H]2c3cc(C(=O)N4CCCC4)n(CCO)c3C[C@H]2CN1C(=O)c1ccccc1,0%,-22%
O=C(CCCc1nc(-c2ccccc2Cl)no1)NC1CCCCC1,/,4%
CCOC(=O)C1CC(=O)c2ccccc2C1c1ccccc1 (stereo not given),-14%,12%
COc1ccc(CNC(=O)CN(C(=O)c2csnn2)c2ccc3c(c2)OCCO3)cc1,-21%,-4%
COc1cc(C(=O)Nc2ccc3nc4n(c(=O)c3c2)CCCCC4)cc(OC)c1OC,-10%[7.34 µM],-1%[7.34 µM]
CCN(C(=O)CSc1ncn[nH]1)C1CCCCC1,-8%,2%
CCOC(=O)N1CCN(Cc2ccc3c(c2)CN(C(=O)c2ccc(C#CC(C)(C)O)o2)CCO3)CC1,-27%,-19%
COC(=O)N1CCCCC1c1cc(C(=O)Nc2cccc3c2CCCC3)no1 (stereo not given),-17%,-6%
C(=C\c1ccccc1)/C=N/N1CCN(Cc2ccccc2)CC1,-33%,-21%
O=C(COc1ccc(/C=N/NC(=O)CSCc2ccc([N+](=O)[O-])cc2)cc1)NCc1ccco1,-2%,-25%
CCCS(=O)(=O)N1CCN(C(=O)c2cccs2)CC1,-3%,4%
C=CCN(C(C(=O)OC)C(C)C)S(=O)(=O)CCNCc1ccccc1 (stereo not given),-2%,-18%&-19%
CC(=O)c1ccc(N2CCN(C(=O)C3CCN(S(=O)(=O)c4cn(C)cn4)CC3)CC2)cc1,-10%,-6%
